UUG fidelity: modulators of yeast start codon fidelity, primary screen, whole organism, S. cerevisiae, single point, plate reader; activity score, % at 18.7 µM; 350,000 compounds, 0.13% hits; AID 602363, 2012; S. cerevisiae UUG-firefly luciferase reporter, luminescence/redox ratio;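 active = replicate mean at a twofold rise or more, about +100% in these data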;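 also: firefly luciferase made from a UUG start codon reports start codon fidelity; reporter light over untreated wells divided by growth signal over untreated wells; some hits fall short of that in this replicate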
Env fusion inh: inhibitors of HIV-1 Env-driven cell-cell fusion, primary screen, HeLa-JRFL effector, CEM21 target cells, luciferase; 360,000 compounds, 1.1% hits; AID 651610, 2012; inhibition, % at 12.3 µM;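 active = mean replicate inhibition score of at least 50 and every replicate individually at or above 50; inconclusive = only one of the two criteria met; inactive = mean below 50 and not all replicates reaching 50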;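 also: 0% = plate neutral controls and 100% = maraviroc near 300 nM; one replicate is shown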
MT1-MMP act inh: blockers of MT1-MMP proenzyme processing, primary screen, HT1080 RFP-PRO-GFP cells, GFP/RFP fluorescence. Matrix metalloproteinase-14 (Homo sapiens), P50281. GFP/RFP ratio fluorescence, overnight; percent of plate control window, DMSO zero. GFP/RFP ratio change, % at 20 µM. 360,000 compounds, 0.061% hits. AID 651647, 2012;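 active = GFP/RFP ratio change of at least 30% with cell ATP level not reduced by more than half and red fluorescence within 50% of control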; also: strong numbers were not always called active
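Material: RFP-PRO-GFP reporter HT1080 cells. Dosing: single-point 20 µM compound, 1% DMSO. Controls: DMSO and RFP-L50D-GFP cell wells. Timing: cells overnight before dosing, compound overnight, 37 °C, 5% CO2. Measure: GFP/RFP fluorescence ratio.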
Rce1 inhib: yeast Rce1p protease inhibitors, primary screen, biochemical, fluorescence, cell-free homogeneous; CAAX prenyl protease 2 (Saccharomyces cerevisiae (strain ATCC 204508 / S288c)), Q03530; yeast membranes, quenched prenylated peptide cleavage fluorescence; calls only; 290,000 compounds, 0.27% hits; AID 2563, 2010;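 active = fall in fluorescence gain of 50% or more versus controls, with final raw signal at or below 3038400; inconclusive = same 50% fall but final raw signal above 3038400; inactive = fall in fluorescence gain under 50%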;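 also: plate controls were neutral control wells for no effect and wells lacking membranes for full effect; tested at 10 µM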
Target sequence (Q03530 whole entry, looked up): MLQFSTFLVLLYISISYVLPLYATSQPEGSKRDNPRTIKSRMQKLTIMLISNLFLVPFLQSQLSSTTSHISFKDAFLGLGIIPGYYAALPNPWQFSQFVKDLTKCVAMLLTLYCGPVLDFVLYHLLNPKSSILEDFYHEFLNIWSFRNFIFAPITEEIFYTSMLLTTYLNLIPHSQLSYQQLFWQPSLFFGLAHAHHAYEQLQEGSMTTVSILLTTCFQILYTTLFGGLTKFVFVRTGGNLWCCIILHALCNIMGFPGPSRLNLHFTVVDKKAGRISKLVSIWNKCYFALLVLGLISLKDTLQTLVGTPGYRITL
CSC inhib: cancer stem cell viability inhibitors, primary screen, luminescence; 300,000 compounds, 1.1% hits; cancer stem cell-like cells viability; inhibition, % at 7.5 µM;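 active = mean at 75% or more and at least half the replicates too; inconclusive = mean and replicates disagree; tested in HMLE shEcad cells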;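 also: 0% = median of negative and 100% = median of positive control wells; the first replicate is given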
PABP polyA inh: PABP poly(A) RNA binding inhibitors, primary screen, biochemical, fluorescence polarization, uHTS; Polyadenylate-binding protein 1 (Homo sapiens), P11940; inhibition, % at 35 µM; 290,000 compounds, 1% hits; AID 2014, 2009;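 active = 50% or more with normal probe brightness, or confirmed in later tests; inconclusive = above 50% with abnormal brightness, or retests that disagree; inactive = below 50% or failed in later tests; about a fifth of its hits are not listed in these tables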;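 also: calls also rest on retests at 20 µM and on dose response follow-up; controls were probe without protein and protein plus probe with vehicle; some compounds called inactive have numbers as strong as hits; many hits fall short of the cut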
Target sequence (P11940 whole entry, looked up): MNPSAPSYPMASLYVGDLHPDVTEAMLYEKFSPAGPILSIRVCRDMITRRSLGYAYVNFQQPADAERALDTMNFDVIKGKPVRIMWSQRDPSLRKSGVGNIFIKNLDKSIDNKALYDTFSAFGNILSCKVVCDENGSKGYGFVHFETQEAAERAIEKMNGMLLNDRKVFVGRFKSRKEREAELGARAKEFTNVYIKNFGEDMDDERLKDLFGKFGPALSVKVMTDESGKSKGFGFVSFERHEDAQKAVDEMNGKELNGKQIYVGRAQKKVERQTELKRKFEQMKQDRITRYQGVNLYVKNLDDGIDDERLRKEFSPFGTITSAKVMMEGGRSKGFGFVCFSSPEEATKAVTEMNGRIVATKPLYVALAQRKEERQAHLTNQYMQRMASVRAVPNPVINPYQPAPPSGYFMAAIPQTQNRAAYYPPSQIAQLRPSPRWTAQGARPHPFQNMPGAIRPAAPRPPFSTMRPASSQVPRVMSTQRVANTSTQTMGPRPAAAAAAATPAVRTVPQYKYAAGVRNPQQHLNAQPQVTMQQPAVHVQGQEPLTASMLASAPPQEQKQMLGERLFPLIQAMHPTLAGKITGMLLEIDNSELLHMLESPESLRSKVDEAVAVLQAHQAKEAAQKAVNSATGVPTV
eIF4H FP inh: human eIF4H binding inhibitors, primary screen, translation initiation inhibitor project, biochemical, uHTS, fluorescence polarization; 290,000 compounds, 0.94% hits; inhibition, % at 35 µM; eIF4H fluorescence polarization binding assay; Eukaryotic translation initiation factor 4H (Homo sapiens), Q15056; AID 2012, 2009;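 active = 50% or more with normal probe brightness, or confirmed in later tests; inconclusive = above 50% with abnormal brightness, or retests that disagree; inactive = below 50% or failed in later tests; about a fifth of its hits are not listed in these tables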;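 also: calls also rest on retests at 20 µM and on dose response follow-up; 0% = protein and probe with vehicle and 100% = probe without protein; strong numbers were not always called active; many hits fall short of the cut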
eIF4H FP inh retest: also measured in eIF4H FP inh; calls as there; inhibition, %; compound at 20 µM; confirmation average;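 mean of two retest wells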
PABP polyA inh retest: also measured in PABP polyA inh; calls as there; inhibition, %; compound at 20 µM; confirmation repeats;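 mean of two retest wells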
MT1-MMP act inh RFP: recorded beside MT1-MMP act inh, whose call it bears; RFP signal change, %; measured here: RFP expression control read;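 0 = vehicle wells; hits needed this value within 50% of zero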
The depositor's hits bear a star; i = inactive; ? = inconclusive; · = not tested or not shown. Only part of the results is shown; rates above refer to the full screens.

SMILES	UUG fidelity	Env fusion inh	MT1-MMP act inh	MT1-MMP act inh RFP	Rce1 inhib	CSC inhib	PABP polyA inh	eIF4H FP inh	others
O=[N+]([O-])c1ccc(N2CCc3ccccc3C2)cc1	-18.4	37.3	2.5	-1.4	i	2.5	4.6	1.7
COC(=O)c1sccc1NC(=O)c1ccc(OC)cc1	-7.2	-76.2	-4.5	-4.6	i	-4.6	-3.2	1.6
CCOc1cc(C(=O)OCc2cccc(OC)c2OC)ccc1OCC(=O)N1CCOCC1	-4.2	·	4.7	0.9	i	10.7	·	·
CC1(C)Cc2ccccc2C(N)=C1C#N	-3.5	1.4	-2.3	-3.7	i	-3.6	-2.2	-5.3
Cc1ccc(SCC(=O)NCCSCc2ccccc2)cc1	·	-9.4	3.8	-3.3	i	3.3	4.8	3.8
CN(C(=O)CN1C(=O)/C(=C/c2ccc(F)cc2)SC1=S)C1CCS(=O)(=O)C1 (configuration not stated)	·	2.0	·	·	i	-1.9	-7.1	-3.0
COc1ccc(COc2ccccc2C(N)=O)cc1F	-16.1	-7.7	-2.0	-0.6	·	1.6	7.3	-2.1
Cc1cc(C)c2c(-n3cccc3)nn(CC#N)c2n1	-6.4	-42.5	0.8	5.2	i	-12.4	-6.2	9.3
CCCCCOc1ccc(Br)cc1/C(C)=N/NC1=NCCN1	-10.8	-47.8	-12.1	-22.2	i	-3.1	12.6	-6.3
O=C(Nc1ccc(N2CCOCC2)cc1)c1ccc(COc2ccccc2)cc1	-22.6	26.5	4.6	-12.9	·	-4.8	7.0	-12.7
CCC(C)(C)C1CCc2[nH]nc(C(=O)NN)c2C1 (configuration not stated)	-22.0	-4.7	-0.8	0.4	i	6.5	-1.6	-6.1
CN1CCCC(C)(C(=O)Nc2ccc(-n3cccc3)cc2)C1 (configuration not stated)	-4.8	-0.1	-1.6	0.2	·	·	·	·
O=C(c1ccc([N+](=O)[O-])cc1)N1CCN(C(=O)c2ccco2)CC1	·	3.1	2.1	2.9	i	2.6	-2.1	1.7
COc1ccc(C(=O)Nc2nc(CC(=O)NCc3c(F)cccc3F)cs2)cc1	-15.4	-26.1	1.3	-6.2	·	·	·	·
Cc1csc(=O)n1CC(=O)OCC(=O)N(CC(C)C)c1c(N)n(Cc2ccccc2)c(=O)[nH]c1=O	·	-22.4	-3.7	-0.2	i	-4.5	·	·
COc1cccc(N(CC(=O)NC2CCCC2)C(=O)Cn2nnc(-c3ccc(C)o3)n2)c1	-3.9	-2.8	6.4	1.5	·	-6.8	9.1	-1.4
CCc1ccc(NC(=O)CC2C(=O)N(c3ccc(OC)cc3)C(=O)N2CCOC)cc1 (configuration not stated)	-5.1	4.8	1.9	-0.2	i	·	3.6	3.0
CCN1CCN(CCNC(=O)c2ccc3c(c2)NC(=O)/C(=C\c2ccc(OC)c(OC)c2)S3)CC1	-10.1	2.7	12.1	0.7	i	12.1	6.5	22.4
COc1ccc(C2=CC3=C(Br)C(=O)C(C)(OC(=O)c4ccco4)C(=O)C3=CO2)cc1 (configuration not stated)	-20.0	·	-13.4	6.7	i	-10.1	?	?
O=c1c2ccccc2oc2ccc(Oc3ccccc3)cc12	-28.2	-174.5	4.6	0.4	i	2.3	-1.0	-2.8
COc1ccc(OCCCN2CCCC(C)C2)cc1 (configuration not stated)	-20.4	-36.2	3.5	2.1	i	-12.6	18.6	5.8
COc1cc(CN2CCN(c3cccc(C)c3C)CC2)cc(OC)c1O	17.3	-5.9	-0.7	2.3	i	-5.9	1.4	-10.3
Cc1ccc(S(=O)(=O)N2CCCC2CNC(=O)c2ccccc2)cc1 (configuration not stated)	1.3	-16.7	5.0	0.0	i	1.6	·	·
COc1cccc(CN2CCN(C(=O)CC(C)C)CC2)c1	2.1	·	8.5	9.7	i	-2.2	35.2	-12.5

Reprinted from the listing for reference:
SMILES	UUG fidelity	Env fusion inh	MT1-MMP act inh	MT1-MMP act inh RFP	Rce1 inhib	CSC inhib	PABP polyA inh	eIF4H FP inh	others
CCc1ccc(NC(=O)CC2C(=O)N(c3ccc(OC)cc3)C(=O)N2CCOC)cc1 (configuration not stated)	-5.1	4.8	1.9	-0.2	i	·	3.6	3.0
CCN1CCN(CCNC(=O)c2ccc3c(c2)NC(=O)/C(=C\c2ccc(OC)c(OC)c2)S3)CC1	-10.1	2.7	12.1	0.7	i	12.1	6.5	22.4

(cont.)
SMILES	UUG fidelity	Env fusion inh	MT1-MMP act inh	MT1-MMP act inh RFP	Rce1 inhib	CSC inhib	PABP polyA inh	eIF4H FP inh	others
CN(C1(C)CCS(=O)(=O)C1)S(=O)(=O)c1ccc(F)cc1 (configuration not stated)	-24.6	-1.5	-3.7	0.0	i	-0.4	11.7	6.9
O=C(O)c1ccc(Br)c(S(=O)(=O)N2CCCC2)c1	-21.0	-58.3	4.4	5.3	i	-5.0	-0.7	-0.5
CCOc1cc(C2C(C(=O)N3CCCCC3)=C(C)NC3=C2C(=O)CC(C)(C)C3)ccc1O (configuration not stated)	-14.3	-140.4	-0.9	3.5	i	-22.7	-16.7	-9.5
O=C(CN1C(=O)c2cccnc2Oc2ccc(Cl)cc21)Nc1ccc(F)cc1	-10.0	17.1	-1.4	0.5	i	·	-0.5	-8.2
Oc1ccccc1OCCOc1ccccc1OCCOc1ccccc1O	-0.1	2.4	13.0	-6.0	i	16.4	3.7	-0.6
CCOCCCNC(=O)CCS(=O)(=O)Cc1ccc(C)cc1	1.4	·	0.9	0.3	i	-19.7	-3.4	-7.4
Cc1cc(/C=C(\C#N)C(=O)Nc2ccc(Cl)cc2)c(C)n1-c1ccc(N2CCOCC2)c([N+](=O)[O-])c1	-15.3	41.2	-5.7	-19.0	i	18.1	0.0	3.5
CCOC(=O)CN(C(=O)COc1nc(-c2ccccc2)cc(C)c1C#N)c1cccc(OC)c1	·	4.9	-18.6	-20.2	i	6.4	-9.7	-11.4
COc1ccc2nc3oc(C(=O)NC4CCN(Cc5ccccc5)CC4)cc3cc2c1	-18.9	·	-5.5	-11.6	·	22.4	-14.7	6.7
CCCC(=O)c1ccc(N2CCN(S(=O)(=O)c3ccc(C)cc3)CC2)c(F)c1	·	·	-5.5	-3.1	i	27.2	-2.1	3.0
Cc1ccccc1CN1C[C@@H]2C[C@@H](c3cnc(N4CCOCC4)s3)N3CCC[C@@]23C1=O	·	7.6	-4.2	-1.1	i	-23.8	?	?
COc1ccc(N(C(=O)Cn2nnc3ccccc32)C(C(=O)NC(C)(C)C)c2ccc(OC)c(O)c2)cc1 (configuration not stated)	2.1	-25.6	-0.5	5.6	i	-10.2	2.9	-8.3
Cc1cc(C)nc(-n2nc(C)cc2NC(=O)CNCc2ccccc2)n1	-33.0	38.8	2.0	1.2	i	-26.7	-6.3	-2.0
Cn1c(NCCc2ccncc2)nc2cc(-c3cccc(C(F)(F)F)c3)sc2c1=O	-16.9	2.5	0.8	0.6	·	·	·	·
CCOC(=O)CC(=O)NC(CC(=O)OC)c1ccc(Br)cc1 (configuration not stated)	-5.1	-9.0	1.9	2.7	i	·	25.0	-6.0
CC(=O)c1cccc(NC(=O)COC(=O)CC2CC3CCC2C3)c1 (configuration not stated)	1.5	·	2.0	4.7	·	-8.4	·	·
O=C(c1ccccc1F)N1CCN(c2ccc([N+](=O)[O-])c(N3CCOCC3)c2)CC1	·	-0.1	0.1	-2.8	i	8.4	8.7	1.4
CCOc1ccc(CCNC(=O)COC(=O)Cc2ccc(F)cc2)cc1OCC	17.6	-3.2	5.4	8.6	i	-3.4	·	·
CCOc1ccc(NC(=O)c2cccc(NC3=NC4CS(=O)(=O)CC4S3)c2)cc1 (configuration not stated)	-7.8	14.5	2.7	3.4	i	·	-11.1	-1.1
OCc1nc2ccccc2n1Cc1c(F)cccc1Cl	·	16.2	-3.1	-3.0	i	-9.8	-6.0	-4.7
Cc1cc(OCCCCN2C(=O)NC(C)(C)C2=O)ccc1[N+](=O)[O-]	·	1.6	-2.4	-10.1	i	-8.8	-1.1	-4.1
COc1ccc(/C=C2\N=C(C)N(c3ccc4ccccc4c3)C2=O)cc1OC	-7.9	-3.7	-2.2	-8.4	·	-6.5	-2.6	-16.3
COc1ccc2nc3ccccc3nc2c1NC(=O)c1ccccc1Cl	·	-19.1	3.6	1.6	i	-10.6	-6.2	-4.2
CC(=O)/C(=N\Nc1ccc(C)cc1)N1CCOCC1	-52.3	-21.2	-0.4	-1.2	i	·	4.3	-4.9
Cc1cc(C(=O)COC(=O)c2ccncc2)c(C)n1Cc1ccco1	-54.6	-7.9	0.9	-3.5	·	-7.7	8.1*	55.0*	eIF4H FP inh retest=93.5*;PABP polyA inh retest=68.0*
CC1CN(C(=S)Nc2ccc(S(N)(=O)=O)cc2)CC(C)O1 (configuration not stated)	-22.7	-22.9	0.2	2.2	i	-6.5	-12.5	4.3
COc1ccc([C@H]2CN(c3ccccc3)C(=O)[C@@H]2CC(=O)Nc2ccccc2)cc1	-6.5	-28.8	4.8	4.6	·	·	·	·
CCC1(C)N([O-])C(C)=C(c2ccccc2)[N+]1=O (configuration not stated)	-19.0	·	-0.2	3.4	i	-5.6	-1.3	-7.6
CCN(CC)CCn1c(SCC(=O)NCCC2=CCCCC2)nc2c(sc3ccccc32)c1=O	-3.5	20.8	0.2	-3.9	i	24.3	-1.7	1.4
Cc1c(C)c2c(OCC(=O)O)cc3c(c2oc1=O)CCC(C)(C)O3	-6.3	7.3	-0.8	2.3	i	4.1	-0.1	-12.5
Cc1ccc(-n2cc(S(=O)(=O)c3ccc(C)cc3)[nH]c2=O)cc1	-0.2	-2.4	-3.0	-0.4	i	-2.4	-0.9	-3.0
CCN(CC)C(=O)CSc1nc(Cc2ccccc2)nc2ccccc12	-9.6	5.2	3.8	-8.4	i	19.9	1.4	0.9
COc1cc(-c2cc(NC(C)=O)c3ncc(-c4cc(OC)c(OC)c(OC)c4)n3c2)cc(OC)c1OC	-6.3	24.2	13.9	2.2	·	·	·	·
O=C(O)c1ccc(Nc2ncnc3scc(-c4ccccc4)c23)cc1	·	-10.4	-12.3	-7.0	i	-9.8	-0.4	-6.3
Cc1cc(C)cc(OCC(=O)OCC(=O)c2cc(C)n(C3CC3)c2C)c1	-5.8	-22.4	5.5	3.1	i	3.0	16.5	1.1
CCOc1ccccc1NC(=O)Cn1nc(-c2ccco2)ccc1=O	-10.6	1.5	1.5	3.5	i	-9.1	11.8	19.2
CCOC(=O)C(=O)c1csc(NC(=O)COc2ccc(N(C)S(=O)(=O)c3ccc(F)cc3)cc2)n1	1.0	-25.3	-0.6	4.1	i	9.7	1.2	-0.6
O=C(CCCn1c(=S)[nH]c2ccccc2c1=O)N1CCOCC1	-3.2	-21.1	2.9	2.7	i	-3.8	-0.2	6.9
CC(C)(O)C#Cc1ccc(CN2CCCC(CO)(Cc3cccc(Cl)c3)C2)cc1 (configuration not stated)	·	-1.4	-5.3	-0.2	i	4.8	-7.2	4.1
Cc1ccc(NC(=O)COC(=O)COc2ccc3ccc(=O)oc3c2)cc1[N+](=O)[O-]	-7.7	-6.1	-1.6	1.7	·	·	·	·
